PABP FP inh: blocks human PABP binding to poly(A) RNA. inhibition, % at 35 µM. fluorescence polarization. AID 2014. hit rate 1% among 290,000. P11940;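 active = 50% or more with normal probe brightness, or confirmed in later tests; about a fifth of its hits are not listed in these tables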;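 also: calls also rest on retests at 20 µM and on dose response follow-up; controls were probe without protein and protein plus probe with vehicle; some compounds called inactive have numbers as strong as hits; many hits fall short of the cut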
Target sequence (P11940 whole entry, looked up): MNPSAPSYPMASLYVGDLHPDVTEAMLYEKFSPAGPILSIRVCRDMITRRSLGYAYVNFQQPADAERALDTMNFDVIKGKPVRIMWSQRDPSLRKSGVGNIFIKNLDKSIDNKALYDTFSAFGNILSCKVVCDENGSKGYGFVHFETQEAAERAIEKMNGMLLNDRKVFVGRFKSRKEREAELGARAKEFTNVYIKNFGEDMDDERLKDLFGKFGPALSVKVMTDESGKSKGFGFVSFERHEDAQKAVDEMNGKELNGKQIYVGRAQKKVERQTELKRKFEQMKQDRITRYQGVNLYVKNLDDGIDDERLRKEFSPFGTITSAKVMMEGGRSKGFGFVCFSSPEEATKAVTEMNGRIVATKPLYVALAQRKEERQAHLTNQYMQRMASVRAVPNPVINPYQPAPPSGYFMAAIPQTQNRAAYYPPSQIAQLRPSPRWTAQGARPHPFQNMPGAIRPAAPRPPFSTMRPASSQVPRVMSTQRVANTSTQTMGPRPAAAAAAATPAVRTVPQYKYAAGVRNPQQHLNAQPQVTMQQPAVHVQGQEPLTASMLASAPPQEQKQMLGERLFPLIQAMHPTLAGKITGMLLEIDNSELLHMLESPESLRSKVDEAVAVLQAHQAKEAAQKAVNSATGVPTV
eIF4H FP inh: inhibitors of RNA binding by human eIF4H; Q15056; eIF4H fluorescence polarization binding assay; hit rate 0.94% among 290,000; inhibition, % at 35 µM;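 active = 50% or more with normal probe brightness, or confirmed in later tests; about a fifth of its hits are not listed in these tables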;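 also: calls also rest on retests at 20 µM and on dose response follow-up; 0% = protein and probe with vehicle and 100% = probe without protein; strong numbers were not always called active; many hits fall short of the cut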
MT1-MMP act inh: MT1-MMP (human) activation inhibition; hit rate 0.061% among 360,000; GFP/RFP ratio change, % at 20 µM; P50281; AID 651647; HT1080 RFP-PRO-GFP cells, GFP/RFP ratio fluorescence, overnight; percent of plate control window, DMSO zero;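 active = GFP/RFP ratio change of at least 30% with cell ATP level not reduced by more than half and red fluorescence within 50% of control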; also: strong numbers were not always called active
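Assay system: HT1080 RFP-PRO-GFP cells | Dosing: 20 µM single dose, 1% DMSO | Incubation: Cells overnight before dosing, compound overnight, 37 °C, 5% CO2 | Evaluation: GFP/RFP fluorescence ratio | Control set: DMSO-only wells and HT1080 RFP-L50D-GFP cell wells as references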
UUG fidelity: yeast start codon fidelity modulation; activity score, % at 18.7 µM; AID 602363; hit rate 0.13% among 350,000; S. cerevisiae UUG-firefly luciferase reporter, luminescence/redox ratio;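 active = replicate mean at a twofold rise or more, about +100% in these data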;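 also: firefly luciferase made from a UUG start codon reports start codon fidelity; reporter light over untreated wells divided by growth signal over untreated wells; some hits fall short of that in this replicate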
Rce1 inh: yeast Ras-converting enzyme inhibition. yeast membranes, quenched prenylated peptide cleavage fluorescence. calls only. hit rate 0.27% among 290,000. Q03530;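 active = fall in fluorescence gain of 50% or more versus controls, with final raw signal at or below 3038400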;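 also: plate controls were neutral control wells for no effect and wells lacking membranes for full effect; tested at 10 µM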
HIV Env fusion: HIV envelope-mediated fusion inhibition; HeLa-JRFL Env/CEM21 cell fusion, luciferase; inhibition, % at 12.3 µM; hit rate 1.1% among 360,000; AID 651610;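 active = mean replicate inhibition score of at least 50 and every replicate individually at or above 50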;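 also: 0% = plate neutral controls and 100% = maraviroc near 300 nM; one replicate is shown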
CSC inhib: blocks cancer stem cells. inhibition, % at 7.5 µM. hit rate 1.1% among 300,000. cancer stem cell-like cells viability, luminescence. AID 2717;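 active = mean at 75% or more and at least half the replicates too; tested in HMLE shEcad cells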;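 also: 0% = median of negative and 100% = median of positive control wells; the first replicate is given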
MT1-MMP act inh RFP: recorded beside MT1-MMP act inh, whose call it bears; RFP signal change, %; measured here: RFP expression control read;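 0 = vehicle wells; hits needed this value within 50% of zero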
Starred values were filed as active, the others as inactive; i = inactive; x = no result given; & = joins results of further samples; [ ] = dose if it differs, or a comment.

SMILES	PABP FP inh	eIF4H FP inh	MT1-MMP act inh	MT1-MMP act inh RFP	UUG fidelity	Rce1 inh	HIV Env fusion	CSC inhib
Cc1ccc(NC(=O)NCc2ccc3c(c2)OCO3)cc1C	4	0	-4	1	x	i	-55	-5
C=CCN1C(=O)/C(=C2/Sc3ccccc3N2CCCS(=O)(=O)O)SC1=S	36	12	4	1	-16	i	x	-7
CC(=O)N(CCc1cccc(C)c1)Cc1cc2ccc(C)cc2[nH]c1=O	2	3	-4	-1	-25	i	11	-4
COc1cc(NC(=O)c2c(F)cccc2F)nc(OC)n1	0	-1	-1	0	x	i	x	11
O=C(c1ccc(Br)cc1)N(Cc1nc2ccccc2c(=O)[nH]1)C1CCCC1	-7	3	-2	-12	-10	i	15	-3
COc1ccc(C(=O)OCCN2CCOCC2)cc1	7	-3	4	7	-15	i	x	-1
Cc1cccc(-c2nc(CS(=O)CC(=O)NC3CCCC(C)C3C)c(C)o2)c1 (stereo not given)	-1	-6	-1	-4	9	i	x	6
CC(=O)NC(Cc1ccccc1C)C(=O)NC1CCN(c2nnnn2-c2ccccc2)CC1 (stereo not given)	14	3	0	2	6	i	6	-17
O=C(NCc1ccco1)c1cccc(NS(=O)(=O)c2cccc(F)c2)c1	-4	-1	0	3	x	i	-10	-5
Cc1ccnc(SC2CC(=O)N(c3ccc(Br)cc3)C2=O)n1 (stereo not given)	12	-2	2	4	1	i	2	38
C[C@H](O)[C@@H]1CN2CCc3c([nH]c4ccc(-c5ccc6c(c5)OCO6)cc34)[C@@H]2C[C@@H]1N(C)C(=O)Nc1ccc(F)cc1	x	x	-5	-13	-6	x	26	x
COc1ccc(/C(C)=N/NC(=O)c2nnn(-c3nonc3N)c2-c2cccs2)cc1OC	-18	-5	8	3	-11	i	3	6

Overlap with the part before: four compounds, followed by the next part.
SMILES	PABP FP inh	eIF4H FP inh	MT1-MMP act inh	MT1-MMP act inh RFP	UUG fidelity	Rce1 inh	HIV Env fusion	CSC inhib
O=C(NCc1ccco1)c1cccc(NS(=O)(=O)c2cccc(F)c2)c1	-4	-1	0	3	x	i	-10	-5
Cc1ccnc(SC2CC(=O)N(c3ccc(Br)cc3)C2=O)n1 (stereo not given)	12	-2	2	4	1	i	2	38
C[C@H](O)[C@@H]1CN2CCc3c([nH]c4ccc(-c5ccc6c(c5)OCO6)cc34)[C@@H]2C[C@@H]1N(C)C(=O)Nc1ccc(F)cc1	x	x	-5	-13	-6	x	26	x
COc1ccc(/C(C)=N/NC(=O)c2nnn(-c3nonc3N)c2-c2cccs2)cc1OC	-18	-5	8	3	-11	i	3	6
CC(=O)Nc1sc2c(c1C(c1ccncc1)N1CCOCC1)CCCC2 (stereo not given)	4	6	-2	3	x	i	20	-8
CN(CC(=O)Nc1ccc(F)c(F)c1F)C(=O)c1cc(S(=O)(=O)N(C)C)ccc1N1CCCC1	x	x	-1	1	-17	x	13	x
CCOC(=O)CCCCCC(=O)Nc1ccc2c(c1)C(=O)N([C@H](C)CO)C[C@@H](C)[C@H](CN(C)S(=O)(=O)c1cn(C)cn1)O2	x	x	6	8	-6	x	-13	-17
CCc1ccccc1NC(=O)NC1CCCCC1	-9	3	-1	0	-15	i	x	-6
Cc1ccccc1SCC(=O)Nc1cc(C(F)(F)F)ccc1N1CCOCC1	x	x	-5	-6	-5	i	x	26
O=C(CSc1ccc(F)cc1)Nc1ccccc1N1CCOCC1	-1	-3	-2	-1	-10	i	23	-3
O=C(/C=C/c1ccccc1)c1ccccn1	6	14	-10	6	-14	i	x	6
O=C(N/N=C/c1ccoc1)c1ccc(Cl)cc1	20	12	-2	2	-26	i	16	-1
N#Cc1cc2c(nc1SCc1cccnc1)CCCC2	2	-13	-3	1	-10	i	-55	-10
O=C(COC(=O)c1ccc2ncsc2c1)Nc1ccccc1Cl	x	x	0	5	-12	x	-7	-15
COc1cccc(CC(O)CC2c3c(cc4c(c3OC)OCO4)CCN2C)c1 (stereo not given)	x	x	-13	-1	-9	x	12	x
COc1ccc(N=C2SCC(c3ccc([N+](=O)[O-])cc3)=NN2CCO)cc1	-2	-7	0	-4	x	x	9	6

Part of the list above, with two lines to a compound:
Values in the order: PABP FP inh	eIF4H FP inh	MT1-MMP act inh	MT1-MMP act inh RFP	UUG fidelity	Rce1 inh	HIV Env fusion	CSC inhib
CC(=O)Nc1sc2c(c1C(c1ccncc1)N1CCOCC1)CCCC2 (stereo not given)
 : 4	6	-2	3	x	i	20	-8
CN(CC(=O)Nc1ccc(F)c(F)c1F)C(=O)c1cc(S(=O)(=O)N(C)C)ccc1N1CCCC1
 : x	x	-1	1	-17	x	13	x
O=C(/C=C/c1ccccc1)c1ccccn1
 : 6	14	-10	6	-14	i	x	6
Cc1ccccc1SCC(=O)Nc1cc(C(F)(F)F)ccc1N1CCOCC1
 : x	x	-5	-6	-5	i	x	26

(continued)
SMILES	PABP FP inh	eIF4H FP inh	MT1-MMP act inh	MT1-MMP act inh RFP	UUG fidelity	Rce1 inh	HIV Env fusion	CSC inhib
CCOc1ccc(/C=N/NC(=S)NC2CC3CC2C2C=CCC32)cc1 (stereo not given)	-16	-4	2	-3	-14	i	-6	32
CN(c1ccccc1)S(=O)(=O)c1cccc(NC(=O)c2cc3ccccc3oc2=O)c1	0	3	0	-1	-20	i	-17	12
COCCN1CSC(=S)N(Cc2ccco2)C1	3	12	-4	-2	x	i	2	1
Cc1cc(C)c(C(=O)COC(=O)Cn2nc(-c3ccccc3)oc2=O)cc1C	x	x	-3	2	-28	x	5	-12
Cc1cccc(-c2nc(CS(=O)CC(=O)NCCc3ccc(Cl)cc3)c(C)o2)c1 (stereo not given)	10	-5	4	2	x	i	11	-5
O=C(O)C1CCCN(S(=O)(=O)c2ccc(-c3ccc(=O)[nH]n3)s2)C1 (stereo not given)	0	-1	-1	-2	-11	i	-5	14
NC(=O)CSc1nnc(Cc2csc(Nc3ccccc3)n2)n1Cc1ccccc1	-2	-1	-1	2	-12	i	-32	-32
O=C(COC(=O)COc1ccccc1)Nc1ccc(Br)cc1Br	x	x	1	6	-18	x	-3	-5
COc1ccc(S(=O)(=O)Oc2ccccc2C(N)=O)cc1	x	x	0	-1	-14	x	-12	x
CCNc1nc(NCC)nc(Oc2ccc(N)cc2)n1	7	2	-1	2	x	i	x	0
O=C(NCc1nc2ccccc2[nH]1)C1=C[C@@H](c2csc3ccccc23)C[C@@H](OCc2ccc(CO)cc2)O1	-12	-10	1	-2	-10&-21	i	5[16.7 µM]	-5
CCOC(=O)c1ccc(NC(=S)N2CCSC2c2c(F)cc(F)cc2F)cc1 (stereo not given)	-10	1	7	-2	x	i	11	24
CCCCN(C)CC(O)Cn1cc(/C=C/C(=O)c2ccc(OCC)cc2)c2ccccc21 (stereo not given)	-4	2	x	x	x	i	x	99*
CCOC(=O)CNC(=O)c1ccc(Cl)s1	-8	-9	1	3	5	i	1	-11
COc1cc(C(=O)NCc2ccco2)c(Br)c(OC)c1OC	2	9	-1	1	-13	i	x	-1
Cc1sc2ncnc(-n3nnc4ccccc43)c2c1C	-10	-6	1	2	x	i	-20	-24
C#CCOCCOCCOCCNc1nc(N2CCOCC2)nc(N2CCN(C(=O)Cn3cc(CCCCN)nn3)CC2)n1	x	x	1	0	3	x	-13	x
O=C(c1ccc(C(F)(F)F)cc1)C1CCCN(C(=O)c2csnn2)C1 (stereo not given)	5	-6	0	0	-5	i	15	-7
COc1ccccc1NC(=O)CSc1nnc(C2CCCCC2)n1C	-5	-8	4	4	-13	i	x	-11
OC(c1ccco1)c1nc(-c2cccs2)cs1 (stereo not given)	x	x	0	4	-2	x	20	x
[O-]c1c[n+](-c2ccc(-[n+]3cc([O-])on3)cc2)no1	10	4	-3	1	x	x	3	15
O=C(Cn1cnc2ccccc2c1=O)Nc1nnc(SCc2ccc(Cl)cc2)s1	12	-1	-1	2	-21	i	4	-5
Cc1ccc(OCCCCNC(C)c2ccccc2)c(C)c1 (stereo not given)	3	7	2	2	-12	i	96*	x
Cn1ccc2c(N(Cc3ccccc3)Cc3ccccc3)cc3c(c21)C1CCC3O1 (stereo not given)	x	x	-2	1	-17	x	10	x

Limited to HIV Env fusion and Rce1 inh (2 entries from above):
Structure	HIV Env fusion	Rce1 inh
COc1cc(C(=O)NCc2ccco2)c(Br)c(OC)c1OC	x	i
[O-]c1c[n+](-c2ccc(-[n+]3cc([O-])on3)cc2)no1	3	x

(listing goes on)
SMILES	PABP FP inh	eIF4H FP inh	MT1-MMP act inh	MT1-MMP act inh RFP	UUG fidelity	Rce1 inh	HIV Env fusion	CSC inhib
CC(=O)Nc1ccc(N2C(=O)c3cccc(NC(C)=O)c3C2=O)cc1	8	8	-1	4	x	x	17	-8
CS(=O)(=O)N(CC(=O)N1CCN(Cc2ccccc2)CC1)c1ccc(F)cc1	2	-12	2	-2	-3	i	1	-6
Cc1ccc(NC(=S)NCCc2c[nH]c3ccccc23)c(C)c1	-5	4	3	-4	x	i	9	10
COc1ccc(C2=NOC(C(=O)Nc3cccc(O)c3)C2)cc1 (stereo not given)	4	-4	-1	2	-7	i	31	16
OC(c1ccccc1)(c1nc(-c2ccc3c(c2)OCO3)cs1)C(F)(F)F (stereo not given)	x	x	0	2	-6	x	-18	x
CC12CCC(C(=O)Nc3ccccc3N3CCOCC3)(CC1=O)C2(C)C (stereo not given)	3	3	7	10	-14	i	x	x
COc1ccc(NC(=O)C2(S(=O)(=O)c3ccc(C)cc3)CC2)cc1OC	2	-4	3	3	-5	i	-13	x
CCn1c(=O)cc(SCC(=O)NCCN2CCN(Cc3ccccc3)CC2)c2ccccc21	1	2	2	9	-12	i	-5	-2
Cc1ccc(C(=O)CCC(=O)Nc2ccccc2C)cc1C	3	-3	1	4	-20	i	-27	x
Cc1cccc(C(=O)NNC(=O)c2ccc(O)cc2)c1	4	-4	4	6	-18	i	-11	2
O=C1CS/C(=N/N=C/c2c[nH]c3ccccc23)N1	-5	-4	0	-1	-19	i	-27	-3
Cc1nn(-c2ccccc2)c2nc(C(Cl)(Cl)Cl)[nH]c(=O)c12	9	-5	2	-1	x	i	1	45
O=C(c1ccc2c(c1)OCO2)N1CCC2(CC1)Oc1ccc(Cl)cc1C(=O)C21CC(c2ccc(Cl)cc2)=NO1 (stereo not given)	6	-12	x	x	x	i	8	x
C=CC[C@@H](CC(=O)N[C@H](CO)Cc1ccccc1)C(=O)N[C@H](C)COC(=O)[C@@H](CC=C)CC(=O)OC(C)(C)C	x	x	1	-1	6	x	5	x
O=C(O)c1cc(NCc2cccs2)ccc1N1CCOCC1	5	-7	-2	-1	-13	i	-15	-20
CCC(=O)N1CCN(c2ccc(NC(=O)c3ccc([N+](=O)[O-])o3)cc2)CC1	-3	11	13	-9	x	i	-408	x
CCC1Sc2ccccc2N(CC(=O)NCCC(C)C)C1=O (stereo not given)	0	0	2	1	-10	i	x	16
Cc1ccc(NC(=O)CCSc2ccccn2)cc1	-2	-2	-2	10	-12	i	x	-13
CC(=O)N1CCN(S(=O)(=O)c2cccc(C(=O)NC3CCC(C)CC3)c2)CC1 (stereo not given)	5	-5	5	-3	x	i	-28	x
O=C1NC(Cc2ccccc2)C(=O)N1Cc1cc([N+](=O)[O-])cc2c1OCOC2 (stereo not given)	0	3	-2	0	x	i	17	6
COc1ccc(Nc2nnc(SCC(=O)Nc3ccc4[nH]c(=O)[nH]c4c3)s2)cc1	-5	-3	3	-2	-29	i	-23	-10

Assay outcomes from PubChem.
